# Bioassay records (PubChem)
# KCNQ2 block – KCNQ2 potassium channel inhibitors, primary screen, cell-based, CHO-K1, FluxOR thallium flux, B-score (AID 2156); 20 min; hits give low values; only compounds with negative scores are shown here; some inactives read as strong as hits; B-score at 10 µM; hit rate 1.1% among 310,000;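 active means fluorescence ratio B-score at most minus 3 library SDs, with starting brightness B-score within 2 library SDs, cut at about -5.5 in these data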
# KCNQ2 block baseline – second read-out of KCNQ2 block, no call of its own (marks repeat the call); B-score; measured here: initial fluorescence intensity artifact check;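 brightness before thallium and not channel activity; 0 = typical well and far values either way flag optical interference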
# An asterisk follows results filed as active; i = inactive. Not all compounds are listed (hit frequency here may not be typical).
SMILES,KCNQ2 block,KCNQ2 block baseline
CC[C@@H]1C(=O)OC[C@@H]1Cc1cncn1C,i,0.37
